Screening data (PubChem BioAssay)
AF4-AF9 inh – blocks AF4 peptide binding to human AF9; P42568; AlphaScreen, biotin-AF4 peptide binding to FLAG-AF9; inhibition, % at 10 µM; 0.47% of 350,000 active; AID 651704;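 active = every replicate reaching a set inhibition limit, whatever the replicate mean, cut at about 25% in these data; inconclusive = mean inhibition reaches that limit but some replicates miss it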;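 also: 0% = plate neutral control median and 100% = total signal loss; the record names both 10 and 1 µM as test concentration; the first replicate is given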
Target sequence (P42568 whole entry, looked up): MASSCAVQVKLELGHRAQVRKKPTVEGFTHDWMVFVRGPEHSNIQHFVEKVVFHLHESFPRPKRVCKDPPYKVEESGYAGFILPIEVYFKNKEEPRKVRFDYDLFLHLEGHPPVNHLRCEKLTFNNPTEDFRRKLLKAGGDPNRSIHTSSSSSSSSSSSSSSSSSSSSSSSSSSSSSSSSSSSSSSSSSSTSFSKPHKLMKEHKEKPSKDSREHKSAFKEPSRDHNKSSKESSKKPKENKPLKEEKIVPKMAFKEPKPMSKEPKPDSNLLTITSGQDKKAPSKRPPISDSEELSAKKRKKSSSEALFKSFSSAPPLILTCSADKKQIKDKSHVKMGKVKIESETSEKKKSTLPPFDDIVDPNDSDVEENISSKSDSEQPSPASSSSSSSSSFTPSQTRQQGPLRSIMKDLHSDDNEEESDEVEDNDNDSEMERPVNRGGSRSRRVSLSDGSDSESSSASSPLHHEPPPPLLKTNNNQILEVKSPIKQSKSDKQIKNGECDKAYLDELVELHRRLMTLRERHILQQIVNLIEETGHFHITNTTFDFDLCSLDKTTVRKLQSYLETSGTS
Ecoli growth – E. coli growth inhibition | Escherichia coli growth, OD600, 23 h; stronger effect = lower value | OD600 absorbance (test concentration not listed) | 0.21% of 330,000 active;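 active = OD600 absorbance below the run mean of sample wells minus 3.6 SD, in any replicate, cut at about 0.56 in these data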;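 also: stock transfer was 300 nL into about 60 µL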
FGF22 binding – binders of recombinant human FGF22 by thermal shift; SYPRO orange fluorescence; percent of sucrose octasulfate shift, DMSO zero; calls only at 9.99 µM; 1.5% of 340,000 active;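 active = melting point raised past a set limit in the mean and every replicate; inconclusive = no clear call; three in four hits are not shown here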
Target sequence (Q9HCT0 whole entry, looked up): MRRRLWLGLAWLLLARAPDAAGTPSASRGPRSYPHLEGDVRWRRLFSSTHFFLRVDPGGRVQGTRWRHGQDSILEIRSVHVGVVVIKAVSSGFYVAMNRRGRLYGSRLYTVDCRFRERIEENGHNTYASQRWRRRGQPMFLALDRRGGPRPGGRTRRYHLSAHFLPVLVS
UCH37 DUB inh – blocks the human deubiquitinase UCH37; Q9Y5K5; purified proteasome/UCH37, Ub-AMC cleavage fluorescence; inhibition, % (test concentration not listed); 0.33% of 330,000 active;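 active = mean of two replicates above 20%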;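 also: 0% = compound-free wells with enzyme and 100% = wells lacking proteasome; stock transfer was 100 nL into about 20 µL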
Target sequence (Q9Y5K5 whole entry, looked up): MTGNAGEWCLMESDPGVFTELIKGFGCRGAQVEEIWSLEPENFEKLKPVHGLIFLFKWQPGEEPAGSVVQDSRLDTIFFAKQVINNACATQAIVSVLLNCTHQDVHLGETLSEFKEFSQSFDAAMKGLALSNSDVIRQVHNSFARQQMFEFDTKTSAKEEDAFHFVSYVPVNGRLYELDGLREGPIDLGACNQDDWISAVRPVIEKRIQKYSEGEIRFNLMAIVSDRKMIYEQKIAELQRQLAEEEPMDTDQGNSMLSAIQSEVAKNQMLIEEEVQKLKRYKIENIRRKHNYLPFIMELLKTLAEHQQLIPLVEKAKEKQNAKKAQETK
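Reagent: Ub-AMC substrate; assay system: Proteasome-associated human UCH37 deubiquitinase; controls: no-proteasome and no-compound wells; read-out: % inhibition of Ub-AMC cleavage fluorescence; timing: 30 min preincubation with enzyme, 25 min cleavage at room temperature; signal: AMC fluorescence from Ub-AMC cleavage, excitation 355 nm, emission 460 nm; buffer or medium: Tris-HCl pH 7.4 plus ovalbumin, ATP-MgCl2, DTT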
HNF4A DNA FP – change in binding of human HNF4 alpha to DNA. AID 1224865. HNF4a-FITC DNA binding, fluorescence polarization, 1 h. activity change, % at 10 µM. 0.3% of 360,000 active; in the data active = activity change above about 30%, passing the limit was not always enough;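 also: controls were the assay level and a saturating level of protein; the project sought stronger binding though the title names inhibitors; some compounds called inactive have numbers as strong as hits; positive values seem to mean higher polarization but the record does not say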
Vif TR-FRET – HIV-1 Vif–A3G interaction blockers – biochemical, TR-FRET, GST-Vif 1-94, biotin-A3G peptide, dose response retest, primary screen (AID 1117319); TR-FRET GST-Vif / biotin-A3G peptide binding; higher % means a stronger effect; test concentration not given here; strong numbers were not always called active; inhibition, %, or IC50 in µM where a hit was titrated; 0.57% of 260,000 active;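 active = above the screen mean plus three standard deviations and confirmed in dose response; inconclusive = results disagree or hit not tested in dose response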;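 also: Vif residues 1-94 fused to GST binding biotinylated APOBEC3G peptide 110-148; 0% = full assay without inhibitor and 100% = GST in place of GST-Vif; retest series ran down from 100 µM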
RanGTP-Imp inh – inhibitors of RanGTP-importin-beta interaction, primary screen, biochemical, FRET, CFP-Ran, YFP-importin-beta, homogeneous; cell-free CFP-Ran/YFP-importin-beta FRET ratio; inhibition, % (no concentration beside the values); 1.1% of 300,000 active; AID 2216;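 active = most replicates above 15%; inconclusive = exactly half above 15%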;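 also: 0% = DMSO wells and 100% = Ran loaded with GDP instead of GTP; wells of about 40 µL received 100 nL stock; the first replicate is given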
Numbers without * were called inactive; i = inactive; ? = inconclusive; / = not tested or not shown. These rows are one share of the data, so the mix of outcomes need not match the whole.

SMILES	AF4-AF9 inh	Ecoli growth	FGF22 binding	UCH37 DUB inh	HNF4A DNA FP	Vif TR-FRET	RanGTP-Imp inh
CCC(C)NS(=O)(=O)c1ccc(OCC(=O)NCC2CCCO2)cc1 (stereo unspecified)	/	0.63	/	3.3	3.4	0%	0.1
Cc1sc(NC(=O)CCS(=O)(=O)c2ccccc2)c(C#N)c1C	-1.0	0.68	i	1.1	-0.4	-7%	1.2
COC(=O)/C=C1/SC(=NC(=O)c2ccc(Cl)cc2)NC1=O	/	0.63	i	7.1	-1.1	/	?
COc1cc(C(C(=O)NC(C)(C)C)N(C(=O)CNC(=O)c2cccs2)c2ccccc2)cc(OC)c1OC (stereo unspecified)	/	0.67	/	0.9	2.2	0%	1.5
COc1cc(/C=N/Nc2snc(SC)c2C#N)cc(OC)c1OC	/	/	/	/	-1.4	7%	1.4
O=C(NCCCNC(=O)c1ccco1)c1ccc(Cl)cc1	-1.9	0.68	i	0.5	1.4	/	-1.3
COc1ccc(C(=O)N2c3ccc(F)cc3CCC2C)cc1OC (stereo unspecified)	/	0.74	/	0.8	2.3	1%	-2.6
CC(=O)c1c(C)[nH]c(C(=O)OC(C)C(=O)Nc2ccc(C)c(S(=O)(=O)N3CCOCC3)c2)c1C (stereo unspecified)	2.5	0.7	i	3.0	-1.7	3%	/
O=Cc1c(N2CCC3(CC2)OCCO3)nc2ccccn2c1=O	-3.1	0.69	i	8.9	1.8	4%	4.4
CCCCn1c(N)c(N(CC(C)C)C(=O)c2ccncc2)c(=O)[nH]c1=O	-0.5	0.71	i	1.9	2.7	16%	4.0
CCCn1c(=O)c2ccccc2n2c(=S)[nH]nc12	-5.9	0.68	i	2.7	3.7	2%	8.0
COc1cc(-c2nnc(SCC(=O)N(C)C3CCS(=O)(=O)C3)o2)cc(OC)c1OC (stereo unspecified)	0.0	0.67	i	2.0	0.9	-11%	2.4
O=C(Nc1ccccc1C(=O)Nc1nccs1)c1ccccc1	-0.2	/	i	/	7.1	/	/
O=C(CNC(=O)[C@@H]1Cc2ccccc2CN1)NC1CCCCC1	-2.8	0.68	i	2.5	-0.2	/	?
CCOC(=O)[C@]12CCCC=C1N(Cc1ccccc1)C(=O)[C@H](CC(=O)NCc1cccc3ccccc13)C2	-2.5	/	i	/	20	/	/
CCOC(=O)c1ccc(N2C(=O)CC(N3CCC(Nc4ccc(F)cc4)CC3)C2=O)cc1 (stereo unspecified)	/	0.71	/	0.4	1.5	2%	0.5
COc1ccc(C(C(=O)NC2CCCC2)N(C(=O)c2snc(-c3ccc(F)cc3)c2N)c2ccccc2)cc1 (stereo unspecified)	/	0.74	/	0.9	4.0	0%	-0.5
Cc1ccc(S(=O)(=O)N(C)c2ccc(OCC(=O)OCc3c(C)noc3C)cc2)cc1	/	0.75	/	0.8	-3.7	?	-2.3
CC(C)c1cc(C(=O)Nc2cc(Br)ccc2O)no1	3.9	0.7	i	4.8	-1.2	12%	-1.3
COc1ccc(OC)c(NC(=O)c2cc(-c3ccc(F)cc3OC(C)C)n[nH]2)c1	1.2	/	i	/	-1.3	/	/
CCOc1ccc(CCNC(=O)Cn2nc(C)c3c(C)n(-c4ccccc4)nc3c2=O)cc1OCC	-2.0	0.7	i	3.1	2.7	/	1.0
Cn1cc([N+](=O)[O-])c(C(=O)NNC(=O)c2ccc([N+](=O)[O-])cc2Cl)n1	-1.1	0.66	i	3.4	0.8	-9%	-3.5
COc1ccccc1OCC(=O)N1CC2(C)CC1CC(C)(C)C2 (stereo unspecified)	/	0.72	/	4.4	2.5	0%	-0.8
c1ccc(CC2CCN(Cc3nc(-c4ccccc4)no3)CC2)cc1	/	0.69	/	2.4	-2.7	1%	1.0
NC(=O)CSc1nc2ccc([N+](=O)[O-])cc2[nH]1	0.0	0.7	i	11	-1.6	?	3.5
CCc1oc(-c2ccc(OC)cc2)c(C(=O)OCCCCCO)c1C(C)OCCO (stereo unspecified)	3.1	/	i	/	2.2	/	/
Cc1onc(-c2ccccc2)c1C(=O)Nc1ccc2c(C)cc(=O)oc2c1	/	0.79	/	-82	1.6	-2%	-1.7
Cc1ccccc1C(=O)Nc1ccccc1N1CCN(C(=O)c2ccccc2)CC1	3.2	/	i	/	3.3	7%	0.8
CCOC(=O)C1=C(COC(=O)CCOc2ccccc2)NC(=O)NC1C (stereo unspecified)	2.7	0.69	i	1.8	1.2	-2%	/
COCCN(Cc1cc2cc(C)ccc2[nH]c1=O)S(=O)(=O)c1ccc(Cl)cc1	1.3	0.71	i	-0.3	-2.6	/	-3.9
O=C1N[C@@H](Cc2cn(S(=O)(=O)c3ccccc3)c3ccccc23)C(=O)N[C@H]1Cc1ccccc1	-7.4	/	i	2.2	-0.2	/	-2.1
COc1cc(C(C#N)N2CCOCC2)ccc1O (stereo unspecified)	/	0.66	/	7.3	4.1	5%	/
CCOC(=O)C1CCCN(C(=O)c2cccs2)CC1 (stereo unspecified)	-1.8	/	i	/	-0.5	/	/
COC(=O)CCC(=O)NC1CC(C)(C)Cc2c1cnn2-c1ccccc1 (stereo unspecified)	0.3	0.67	i	1.3	0.8	/	-5.3
Cn1c(C(=O)N2CCCC(C(=O)NCc3ccc4c(c3)OCO4)C2)cc2sccc21 (stereo unspecified)	-4.2	0.71	i	2.5	3.6	-2%	-5.0
C=C(C)c1cc2c(ccc3ccc(=O)oc32)o1	0.6	0.73	i	-9.9	-0.5	/	/
COCCOC(=O)c1c(C)oc2ccc(OC(=O)c3ccco3)cc12	-6.8	0.73	i	3.2	-3.2	-2%	0.3
O=S(=O)(Nc1cccc(-c2cn3cccnc3n2)c1)c1ccc(-c2ccccc2)cc1	/	0.75	/	-128	3.0	-1%	3.2
CN(CC(O)CN)CC(O)CN1CCCCC1 (stereo unspecified)	8.9	0.68	i	2.2	0.6	6%	?
O=C(COc1ccc(Cl)cc1Cl)Nc1nc2n(n1)C(c1ccccc1)CC(=O)N2 (stereo unspecified)	/	0.69	/	4.2	1.1	3%	-1.1
CC1CCc2c(sc3ncn(N)c(=N)c23)C1 (stereo unspecified)	0.4	0.68	i	-1.2	-0.9	5%	-1.3
CC1(C)CC(=O)c2cn3ncnc3nc2C1	-1.2	0.74	i	-0.5	2.8	2%	?
Cc1cc(C)nc(SCC(=O)N2CCc3ccccc32)n1	-1.4	0.71	i	6.7	5.4	-7%	1.3
CN1CCN(C(=O)/C(C#N)=C/c2ccc(F)cc2)CC1	-1.7	0.66	i	-0.5	2.5	-4%	?
O=C(COc1cccc([N+](=O)[O-])c1)N/N=C/c1ccco1	-2.3	/	i	/	-6.3	7%	5.2
Cc1ccc(OCC(=O)N(Cc2ccccc2)C(C)(C)C)c([N+](=O)[O-])n1	/	0.66	/	0.8	3.7	1%	?
Cc1c(-c2ccccc2)sc2nc[nH]c(=S)c12	-8.0	/	i	/	2.9	-17%	-1.5
Cc1ccc(N=Cc2cc(Br)cc(Cl)c2O)cc1	0.4	0.66	i	-0.2	0.8	/	?
CC(=O)c1ccc(Cc2ccccc2)cc1	-0.2	0.66	i	2.5	0.3	-1%	4.6
COc1cccc(NC(=O)COc2coc(CN3CCN(c4ccccc4)CC3)cc2=O)c1	-0.2	0.68	i	-0.6	-0.6	3%	8.5

Taken from above:
RanGTP-Imp inh with CC(=O)c1ccc(Cc2ccccc2)cc1 : 4.6
Vif TR-FRET with COc1cccc(NC(=O)COc2coc(CN3CCN(c4ccccc4)CC3)cc2=O)c1 : 3%
HNF4A DNA FP with O=C(COc1cccc([N+](=O)[O-])c1)N/N=C/c1ccco1 : -6.3
Vif TR-FRET with CC1CCc2c(sc3ncn(N)c(=N)c23)C1 (stereo unspecified) : 5%

Remaining list, next part
SMILES	AF4-AF9 inh	Ecoli growth	FGF22 binding	UCH37 DUB inh	HNF4A DNA FP	Vif TR-FRET	RanGTP-Imp inh
CCN1C(=O)/C(=C2\Sc3ccccc3N2CC)OC1=S	-3.6	/	i	-0.2	3.2	-48%	21*
CCc1noc(C)c1C(=O)Nc1ccc(F)c(F)c1	-5.2	0.67	i	1.9	2.2	-3%	3.3
Cc1ccc(S(=O)(=O)N2CCC(C(=O)N3CCCC(C(F)(F)F)C3)CC2)cc1C (stereo unspecified)	1.5	0.68	i	-0.1	-1.1	0%	2.8
CC(=O)O[C@@H](Cc1ccc(O)cc1)C(=O)CC(C)C	-4.6	/	i	/	-0.8	/	/
Cc1cc(C)c(NC(=O)COC(=O)Cn2nc(-c3ccccc3)oc2=O)c(C)c1	0.8	0.71	i	1.3	-4.6	/	/
Cn1cccc1/C=N/n1cnnc1	/	/	/	/	5.6	12%	?
Cc1ccc(N(CC#N)C(=O)CS(=O)(=O)c2cccc([N+](=O)[O-])c2)cc1	?	0.66	i	2.5	-1.7	-10%	-0.5
COC(=O)C1=C(C(C)=O)C(c2ccc(C)cc2)n2nnnc2N1 (stereo unspecified)	/	0.72	/	8.4	-4.4	?	4.6
COc1cc(C(=O)NC(=S)Nc2ccc(NC(=O)c3ccco3)cc2)cc(OC)c1OC	/	0.73	/	6.4	-2.3	-1%	-0.8
CC1CN(C(=O)Nc2ccc3snnc3c2)c2ccccc21 (stereo unspecified)	-12	0.69	i	1.8	2.4	1%	?
Cc1ccc(NC(=O)Cc2cn3ccsc3n2)nc1	/	0.68	/	1.9	4.3	32%	-2.5
CCOC(=O)C1CCCCN1Cc1cccc(OC)c1OC (stereo unspecified)	/	0.68	/	-1.3	-0.9	-2%	-4.2
CCc1ccc(OCC(=O)NNC(=O)c2cnccn2)c(Br)c1	1.4	0.69	i	4.1	1.9	/	0.4
O=C(Nc1ccc2c(c1)OCO2)NC1CCN(Cc2ccccc2)CC1	6.9	0.7	i	2.1	-4.4	7%	4.8
COCCN1CCN(C(=O)C2CCC(=O)N(CCc3ccccc3)C2)CC1 (stereo unspecified)	-1.2	0.66	i	0.9	0.8	/	1.8
CCc1nnc(NC(=O)C2CCN(C(=O)c3ccco3)CC2)s1	-5.0	0.67	i	3.6	3.3	/	1.9
Cc1ccsc1C=Nc1c(C)n(C)n(-c2ccccc2)c1=O	/	0.72	/	8.6	4.0	20%	1.9
c1ccc(OCCNc2nc(NCC3CC3)nc3cc(-c4ccccc4)sc23)cc1	1.7	/	i	/	-2.3	/	/
COc1cc(S(=O)(=O)N(C)C)ccc1F	/	0.66	/	1.8	-0.6	18%	7.4
CC(OC(=O)/C(C#N)=C/c1ccc(N(C)C)cc1)C(=O)N(C)Cc1ccccc1 (stereo unspecified)	1.4	0.72	i	10	136	/	81*
O=C(NCCN1CCC(n2c(=O)[nH]c3ccccc32)CC1)c1cccs1	-1.1	/	i	/	1.1	/	/
Cc1ccc(CN2C(=O)CSC(C)C2=O)cc1 (stereo unspecified)	-2.1	0.68	i	1.0	3.4	-2%	-1.8
O=C(Cc1cn2ccsc2n1)Nc1nc2c(s1)CCCC2	/	0.71	/	-4.2	-6.7	-4%	?
COc1ccc(C(=O)N/C(=C\c2ccco2)C(=O)NC2CCS(=O)(=O)C2)cc1 (stereo unspecified)	-4.3	/	i	1.2	1.5	-4%	1.0
O=C1C2C3C=CC(C3)C2C(=O)N1c1cccc(-c2nc3ccccc3o2)c1 (stereo unspecified)	/	0.71	/	2.5	1.9	0%	6.0

Profiles as entered above. Screens in order: AF4-AF9 inh | Ecoli growth | FGF22 binding | UCH37 DUB inh | HNF4A DNA FP | Vif TR-FRET | RanGTP-Imp inh
Shown for O=C(Cc1cn2ccsc2n1)Nc1nc2c(s1)CCCC2 : / | 0.71 | / | -4.2 | -6.7 | -4% | ?
Shown for Cc1ccc(CN2C(=O)CSC(C)C2=O)cc1 (stereo unspecified) : -2.1 | 0.68 | i | 1.0 | 3.4 | -2% | -1.8
